Screens: PubChem BioAssay, Johns Hopkins Ion Channel Center
KCNQ2 enhance – potentiators of rat KCNQ2 potassium channel; B-score at 10 µM; CHO-K1 KCNQ2, FluxOR thallium flux fluorescence; active compounds read high; Potassium voltage-gated channel subfamily KQT member 2 (Rattus norvegicus), O88943; hit rate 0.54% among 310,000;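 active = fluorescence ratio B-score at least 3 SD of library B-scores, with initial fluorescence B-score within 3 SD, cut at about 5.3 in these data; same plate scores as AID 2156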;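 note: B-score of peak minus minimum over baseline fluorescence ratio after K+ and Tl+ stimulus; positive B-score means potentiation of KCNQ2 with more thallium influx and brighter signal; only the inactives scoring about 0 or higher are listed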
Target sequence (O88943 whole entry, looked up): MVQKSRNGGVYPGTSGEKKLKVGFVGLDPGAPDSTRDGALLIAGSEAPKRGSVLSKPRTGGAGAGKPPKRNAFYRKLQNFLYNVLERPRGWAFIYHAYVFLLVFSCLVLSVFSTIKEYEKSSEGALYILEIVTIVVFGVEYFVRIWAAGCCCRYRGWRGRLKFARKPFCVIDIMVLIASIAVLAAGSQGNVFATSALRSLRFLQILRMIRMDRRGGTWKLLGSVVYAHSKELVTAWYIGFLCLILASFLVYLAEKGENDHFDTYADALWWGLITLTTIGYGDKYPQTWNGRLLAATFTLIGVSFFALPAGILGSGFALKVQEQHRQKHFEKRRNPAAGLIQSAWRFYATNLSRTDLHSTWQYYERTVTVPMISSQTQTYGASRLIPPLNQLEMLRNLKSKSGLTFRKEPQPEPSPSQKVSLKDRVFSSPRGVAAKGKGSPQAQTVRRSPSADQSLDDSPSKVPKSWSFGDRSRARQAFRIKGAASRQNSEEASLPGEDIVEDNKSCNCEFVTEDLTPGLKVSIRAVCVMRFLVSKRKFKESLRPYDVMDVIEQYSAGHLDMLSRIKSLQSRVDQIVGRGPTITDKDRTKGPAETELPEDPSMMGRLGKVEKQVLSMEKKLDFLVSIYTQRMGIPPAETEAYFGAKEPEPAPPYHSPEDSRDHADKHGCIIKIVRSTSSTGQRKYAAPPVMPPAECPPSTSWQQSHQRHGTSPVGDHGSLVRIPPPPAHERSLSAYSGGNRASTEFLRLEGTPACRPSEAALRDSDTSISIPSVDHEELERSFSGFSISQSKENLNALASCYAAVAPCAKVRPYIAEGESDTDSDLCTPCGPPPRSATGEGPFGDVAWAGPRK
KCNQ2 enhance baseline – second read-out of KCNQ2 enhance, no call of its own (marks repeat the call); B-score; compound at 10 µM; measured here: initial fluorescence intensity artifact check;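 brightness before thallium and not channel activity; 0 = typical well and far values either way flag optical interference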
* marks the source's active call; other numbers are inactive results. Not all compounds are listed, so the mix of outcomes need not match the whole.

SMILES	KCNQ2 enhance	KCNQ2 enhance baseline
O=[N+]([O-])c1cc(S(=O)(=O)N2CCCC2)ccc1N/N=C/c1cccnc1	0.82	0.28
COc1cccc(CN2CCN(C3CCN(c4ccccc4F)CC3)CC2CCO)c1 (centres undefined)	0.75	0.63
COC(=O)c1c(C(=O)OC)c(-c2cccc(F)c2)n2c1CS(=O)(=O)C2	0.08	0.83
COc1ccc(C2(NC(C)=O)CCN(Cc3cccnc3)CC2)cc1	0.02	0.04
O=C(Nc1c2c(nn1-c1cccc(Cl)c1)CS(=O)(=O)C2)c1ccc2c(c1)OCO2	1.5	-0.33
COc1ccc(/C=C(/C#N)C(=O)Nc2cccnc2)cc1OC	0.07	-1.2
COc1ccc(C(=O)N2CCSCC2)cc1OC1CCN(C(C)=O)CC1	0.23	-0.05
CCc1cccc(OCCCCN(CC)CC)c1	0.4	1.8
Cc1ccn2c(=O)c(C(=O)NCCCN3CCCCC3C)c(O)nc2c1 (centres undefined)	0.59	0.09
CCCCCN1CC(=O)N2[C@@H](Cc3c([nH]c4ccccc34)C2(C)C)C1=O	0.36	3.2
CCOC(=O)N/N=C\c1cccc(OC)c1OC/C=C/c1ccccc1	0.26	-1.7
COc1cccc(C(=O)N(CN2CCCC2=O)c2cc(C)on2)c1	0.45	0.36
COc1ccc(S(=O)(=O)Nc2ccc3c(c2)OCO3)cc1	0.11	2.3
CCc1c(O)nc(SC2CC(=O)N(c3ccc(F)c(Cl)c3)C2=O)[nH]c1=O (centres undefined)	0.05	0.88
COc1ccccc1N1CCN(C2CCCN(C(=O)c3oc(C)cc3C)C2)CC1 (centres undefined)	0.69	-0.33
CCN(CC(=O)Nc1ccc(NC(C)=O)cc1)C(=O)CCCOc1ccc(C(C)(C)C)cc1	0.94	-2.6
CC1=N/C(=C\c2ccc(OC(C)C)cc2)C(=O)N1c1ccc(C(=O)O)cc1	1.8	0.05
CCN(CC)S(=O)(=O)c1ccc(NC(=O)Cc2cccs2)cc1	0.64	-0.51
CCOC(=O)Cc1csc(NC(=O)C(C)Oc2ccc3c(C)cc(=O)oc3c2)n1 (centres undefined)	0.03	-0.24
CCOC(=O)c1c(-c2ccccc2)csc1NC(=O)CSc1nc(N)cc(N)n1	2.1	-0.03
O=C(CCc1ccccc1)Nc1nc2n(n1)C(c1ccc(Cl)cc1)CC(=O)N2 (centres undefined)	0.92	1.3
CCOc1ccc(N2CC(C(=O)NCCc3ccc(OC)c(OC)c3)CC2=O)cc1 (centres undefined)	1.8	0.05
Cc1c(-c2nc(-c3cccnc3)no2)cccc1[N+](=O)[O-]	0.58	0.02
COc1ccc(CNCCNC(=O)c2cccs2)c(OC)c1OC	0.1	-2.8
COc1cccc(C(=O)NC(=O)Nc2nc(C)cc(C(F)(F)F)n2)c1	0.77	-0.67

(further entries)
SMILES	KCNQ2 enhance	KCNQ2 enhance baseline
CCOc1ccc(CCNC(=O)C2CC(=O)N(c3ccc4c(c3)OCCO4)C2)cc1OCC (centres undefined)	0.81	-0.54
COc1ccc(N2CCN(C3CCCN(C(=O)c4ccoc4)C3)CC2)cc1 (centres undefined)	1.2	-0.08
CCCCC1CN2CCc3c([nH]c4ccccc34)C2(C)C1 (centres undefined)	0.72	-1.9
Cc1cc(NC(=O)CSc2ccc(-c3cccc([N+](=O)[O-])c3)nn2)no1	1.2	0.58
COc1cc2nc(N(CCN(C)C)C(=O)c3ccc(S(=O)(=O)N(C)CC4CCCO4)cc3)sc2cc1OC (centres undefined)	0.35	0.87
CC(=O)c1cccc(NC(=O)N2CCC(C(=O)c3ccc(F)cc3)CC2)c1	1.2	-1.1
C[N+]1(CC(=O)OCCCc2ccccc2)CCOCC1	1.7	-0.33
COc1ccc(C(=O)CCS(=O)(=O)c2ccc(C)cc2)cc1OC	2.4	-0.54
Cc1cc(=O)oc2cc(OCC(=O)N3CCCC(C)C3)ccc12 (centres undefined)	2.3	-0.67
N/C(=N\c1nc2c(c(=O)[nH]1)CCC2)Nc1ccccc1	0.89	-0.24
O=C(O)c1sccc1Oc1ccc(NS(=O)(=O)c2cccc(F)c2)cc1	1.6	-4.6
Cc1ccc(C)c2c(SC(C)C(=O)NCc3ccco3)nc(-c3ccccc3)nc12 (centres undefined)	0.58	-1.6
O=C(N/N=C/c1ccco1)c1cnccn1	1.4	0.53
CSc1nc(O)c(C(c2ccc(O)cc2)c2c(O)nc(SC)[nH]c2=O)c(=O)[nH]1	1	0.02
CN(C)CCNC(=O)c1sc2cccc(F)c2c1Cl	0.26	-0.24
O=C(NC1CCCCC1)c1ccc(N2CCOCC2)c([N+](=O)[O-])c1	0.88	-0.15
CCOc1ccc(OCC(=O)Nc2c3c(nn2C(C)(C)C)CS(=O)(=O)C3)cc1	0.32	0.41
CN(C)c1nc(Oc2ccc(/C=N/O)cc2)nc(N(C)C)n1	0.06	4.1
C=CCNc1nc(N)c(C(=C(C#N)C#N)c2ccccc2)s1	1.1	-1.1
C=C[C@@]1(C)CC(=O)[C@]2(O)[C@@]3(C)[C@@H](O)CCC(C)(C)[C@@H]3[C@H](O)[C@H](OC(C)=O)[C@@]2(C)O1	8.9*	-2.6*
CC1=C(C(=O)OC2CCCCC2)C(c2ccco2)n2ncnc2N1 (centres undefined)	0.09	-1.9
CCOC(=O)CSc1ccc(-c2nc3cc(C)c(C)cc3[nH]2)cn1	0.09	1.2
Cn1c(-c2ccc(C(C)(C)C)cc2)n[nH]c1=S	2.5	-1.3
COC(=O)N/N=C\c1cc(Br)ccc1OCc1ccccc1	1.3	-2.1
c1cc2ccc3ccc(CN4CCOCC4)c4ccc(c1)c2c34	0.02	-0.58

(list continues)
SMILES	KCNQ2 enhance	KCNQ2 enhance baseline
CCCCNC(=O)Nc1cnn(CC)c1C(N)=O	0.13	0.92
Cc1cccc2cc(C#N)c(NCCNS(=O)(=O)c3ccc4c(c3)OCCO4)nc12	0.29	-0.04
CCN1CCN(C(=O)CCc2nnc3ccc(N4CCC5(CC4)OCCO5)nn23)CC1	1.5	1.3
Cc1ccc(N=Cc2c(O)n(-c3nccs3)c(=O)c3ccccc23)cc1	0.54	1
O=C(O)c1cccc(NC(=O)c2cccc(S(=O)(=O)N3CCc4ccccc43)c2)c1	0.42	0.26
COc1cc(OC)cc(N2CC(C)(C)C2=O)c1	1.8	-1.4
O=C1CN(C(=O)COC(=O)C2CCN(S(=O)(=O)c3ccccc3C(F)(F)F)CC2)c2ccccc2N1	1.4	-0.05
CCc1nnc(NS(=O)(=O)c2ccc(NC(=O)/C=C/c3ccc(OC)cc3OC)cc2)s1	1.1	-0.3
CC(C)c1nc2sc3c(c2c(=O)n1N)CC(C)(C)OC3	0.72	-0.05
N=C1c2ccccc2CN1c1ccc(N2CCOCC2)c(S(=O)(=O)Nc2ccc(Cl)cc2)c1	1	-2.3
CCOC(=O)C(NC(=O)CC(C)C)(Nc1cc(C)on1)C(F)(F)F (centres undefined)	0.41	-0.88
CCCCN(C(=O)c1ccc(N(C)S(=O)(=O)c2ccc(C)cc2)cc1)c1c(N)n(CCCC)c(=O)[nH]c1=O	0.01	0.88
O=C(O)CN1CCN(Cc2ccccc2)C1=O	0.22	0.05
CCOC(=O)c1c(O)cc(C)[nH]c1=O	0.39	0.32
COC(=O)Nc1ccc(S(=O)(=O)N2CCN(CCN3C(=O)C4C5C=CC(C5)C4C3=O)CC2)cc1 (centres undefined)	0.36	-2.5
Cc1ccc(Cl)cc1NC(=O)Nc1cccs1	0.75	-1.7
COc1ccc(C2=NOC(C)(c3nnc(-c4ccc(F)cc4)o3)C2)cc1 (centres undefined)	0.28	0.82
CN(CC(=O)Nc1ccccc1Br)C(=O)CNC(=O)Cc1cccc2ccccc12	0.88	-0.24
COCCn1c(CCC(=O)O)ccc1-c1cccs1	0.14	0.36
COCCSc1nnc(NC(=O)Cc2cccs2)s1	4.2	0.44
CCC(C(=O)O)n1c(C(F)(F)F)nc2ccccc21 (centres undefined)	1.2	-0.79
Cc1cccc(-n2c(O)c(C=NCc3ccccn3)c3ccccc3c2=O)c1	0.55	-2.1
CCOC(=O)CN1NC2(CCC(C)CC2)NC1=S (centres undefined)	0.43	0.28
CCOc1ccc(S(=O)(=O)N2CCC(C(=O)NCc3ccccn3)CC2)cc1	1.8	0.5
Nc1cc(=O)[nH]c(=S)n1-c1ccccc1	0.39	-1.1

The list goes on (2 carried over from the part before).
SMILES	KCNQ2 enhance	KCNQ2 enhance baseline
CCOc1ccc(S(=O)(=O)N2CCC(C(=O)NCc3ccccn3)CC2)cc1	1.8	0.5
Nc1cc(=O)[nH]c(=S)n1-c1ccccc1	0.39	-1.1
COc1ccc(C(=O)N2CCC(N3CCN(c4ccccc4)CC3)CC2)cc1OC	0.22	0.02
COc1ccc(-n2c(=O)c3ccccc3n(CC(=O)Nc3cc(C)on3)c2=O)cc1OC	0.72	-2.3
Cc1ccccc1OCc1nnc(SCC(=O)O)n1Cc1ccccc1	0.65	0.11
Cc1cnc(C(=O)OCC(=O)N2CCc3ccccc3C2)cn1	0.09	1.2
Cn1c(=O)c2c(SCC(N)=O)nc(CC(C)(C)C)nc2n(C)c1=O	0.06	-1.9
CCOC(=O)CSCc1cn2cc(Cl)ccc2n1	0.03	1.4
CC1(C)CC2CC(C)(CN2S(=O)(=O)c2ccc(C(=O)Nc3ccc(S(=O)(=O)N4CCOCC4)cc3)cc2)C1 (centres undefined)	0.71	-0.91
COc1ccc(Cn2c(C(C)C)nc3sc4ccccc4c(=O)c3c2=O)cc1	0.17	1.3
COc1ccccc1NC(=O)/C(C#N)=C/c1ccc(OCCN2CCOCC2)c(OC)c1	1.1	0.95
CCOC(=O)C1C(=O)CC(=O)CC1CC(C)SCC (centres undefined)	0.4	-0.28
CC(Sc1n[nH]c(N)n1)C(=O)NC1CCCCC1C (centres undefined)	0.65	-0.31
O=C(NCC1CCCO1)c1nn2c(C(F)(F)F)cc(-c3ccco3)nc2c1Cl (centres undefined)	0.19	-0.28
CN(C)CCCN(C(=O)c1ccc(S(=O)(=O)N2CCCCC2)cc1)c1nc2cc3c(cc2s1)OCO3	1.3	-1.1
COc1cccc(NC(=O)c2ncc(Cl)c(Cl)c2Cl)c1	0.88	1.2
COc1[nH]c2ccc(F)cc2c1C(=O)OCC1CCN(CCNS(C)(=O)=O)CC1	0.04	-2.6
CCn1cc(/C=N/NC(=O)COc2cccc3cccnc23)c2ccccc21	2	-1.1
COc1ccc2c(c1)CCc1c(C(=O)NC3CCCCC3)noc1-2	0.74	-1.3
O=C(Nc1ccc(Cl)cc1Cl)N1CCN(c2ncccn2)CC1	2.2	-3
Cc1ccc(C)c(NC(=O)CN(C)C(=O)C2CCN(C(=O)Nc3ccccc3)CC2)c1	0.03	-0.01
COc1cccc(S(=O)(=O)NCc2ccc(C(=O)Nc3cccc(Cl)c3)cc2)c1	0.07	0.41
Nc1ccc(-c2nc3ccccc3s2)cn1	0.04	-1.7
Cc1ccc(SCc2cc(=O)c3c(=O)n(-c4ccccc4)[nH]c3[nH]2)cc1	5.2	8.6
COc1cc(CNCCc2c[nH]c3ccccc23)cc(Cl)c1OCC(N)=O	1.9	0.73
CCN(CC)S(=O)(=O)c1ccc(C(=O)N(c2ccc(C)cc2)C2C=CS(=O)(=O)C2)cc1 (centres undefined)	0.57	2.7
CCCc1nnc(NC(=O)CC(=O)Nc2ccccc2C(=O)O)s1	0.04	1.3

Following part:
SMILES	KCNQ2 enhance	KCNQ2 enhance baseline
COc1ccc(OCC(=O)Nc2cc3c(cc2C(=O)O)OCCCO3)cc1	0.06	1
O=C(NC1(C(F)(F)F)NC(=O)N(Cc2cccnc2)C1=O)c1ccccc1Cl (centres undefined)	1.5	-0.61
COc1ccc(N(CC(=O)N2CCCC2)S(=O)(=O)c2ccc(NC(C)=O)cc2)cc1	2.3	0.75
Cc1ccccc1NC(=O)CSc1nc2ccccc2c(=O)n1CC1CCCO1 (centres undefined)	0.07	1.7
Cc1cc2c(s1)CCCCC(=O)N2	2.5	-1.5
CN(Cc1ccc(OC(F)F)cc1)C(=O)c1ccc2c(=O)n3c(nc2c1)CCC3	0.02	0.23
CCn1nc(NS(=O)(=O)c2ccccc2)c2cc3cc(C)ccc3nc21	0.45	-1.1
FC(F)(F)c1cccc(NC(=S)Nc2ccc(Cl)c(Cl)c2)c1	4.2	0.57
Cc1ccc2ccc(S(=O)(=O)NCc3ccco3)cc2c1	0.17	1.7
CSCCC(NC(=O)c1ccccc1)C(=O)Nc1ccc(NC(C)=O)cc1 (centres undefined)	0.38	0.41
Fc1ccc(-c2nnc3ccc(N4CCCC4)nn23)cc1	0.27	2
CCc1ccc(NC(=O)Cn2nnc(C(=O)NCc3ccc4c(c3)OCO4)c2N)cc1	1.7	-0.05
O=C(CSc1nccn1-c1cccc(Cl)c1)NC1CCCC1	1.4	0.03
COc1ccccc1CN1CCNC(=O)C1CC(=O)N(C)Cc1ccon1 (centres undefined)	1	0.95

Record cards, as listed above. Order of screens: KCNQ2 enhance, KCNQ2 enhance baseline
CCN(CC(=O)Nc1ccc(NC(C)=O)cc1)C(=O)CCCOc1ccc(C(C)(C)C)cc1 is listed with 0.94, -2.6
COc1cccc(CN2CCN(C3CCN(c4ccccc4F)CC3)CC2CCO)c1 (centres undefined) is listed with 0.75, 0.63
N/C(=N\c1nc2c(c(=O)[nH]1)CCC2)Nc1ccccc1 is listed with 0.89, -0.24

Compounds above that have a cyano group, in the order listed:
SMILES	KCNQ2 enhance	KCNQ2 enhance baseline
COc1ccc(/C=C(/C#N)C(=O)Nc2cccnc2)cc1OC	0.07	-1.2
C=CCNc1nc(N)c(C(=C(C#N)C#N)c2ccccc2)s1	1.1	-1.1
Cc1cccc2cc(C#N)c(NCCNS(=O)(=O)c3ccc4c(c3)OCCO4)nc12	0.29	-0.04
COc1ccccc1NC(=O)/C(C#N)=C/c1ccc(OCCN2CCOCC2)c(OC)c1	1.1	0.95
